Screens from PubChem.
Rce1 inhib: yeast Ras-converting enzyme inhibition; AID 2563; 0.27% of 290,000 active; Q03530; calls only; yeast membranes, quenched prenylated peptide cleavage fluorescence;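 active = fall in fluorescence gain of 50% or more versus controls, with final raw signal at or below 3038400; inconclusive = same 50% fall but final raw signal above 3038400; inactive = fall in fluorescence gain under 50%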;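 note: plate controls were neutral control wells for no effect and wells lacking membranes for full effect; tested at 10 µM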
Target sequence (Q03530 whole entry, looked up): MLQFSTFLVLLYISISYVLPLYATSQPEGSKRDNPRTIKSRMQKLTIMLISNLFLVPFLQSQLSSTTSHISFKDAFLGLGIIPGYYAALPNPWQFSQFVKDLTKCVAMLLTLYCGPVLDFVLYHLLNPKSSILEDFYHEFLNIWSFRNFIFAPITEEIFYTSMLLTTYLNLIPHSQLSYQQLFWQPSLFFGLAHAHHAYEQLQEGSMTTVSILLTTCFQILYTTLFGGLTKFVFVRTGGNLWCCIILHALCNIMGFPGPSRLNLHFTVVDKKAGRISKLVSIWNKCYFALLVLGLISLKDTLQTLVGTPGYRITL
CSC inhib: cancer stem cell inhibition. cancer stem cell-like cells viability, luminescence. inhibition, % at 7.5 µM. 1.1% of 300,000 active;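 active = mean at 75% or more and at least half the replicates too; inconclusive = mean and replicates disagree; tested in HMLE shEcad cells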;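 note: 0% = median of negative and 100% = median of positive control wells; the first replicate is given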
MT1-MMP act inh: blocks activation of human MT1-MMP; P50281; HT1080 RFP-PRO-GFP cells, GFP/RFP ratio fluorescence, overnight; percent of plate control window, DMSO zero; GFP/RFP ratio change, % at 20 µM; 0.061% of 360,000 active;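 active = GFP/RFP ratio change of at least 30% with cell ATP level not reduced by more than half and red fluorescence within 50% of control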; note: strong numbers were not always called active
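Assay system: HT1080 cells carrying an RFP-PRO-GFP reporter | Dosing: Single dose of 20 µM compound, 1% DMSO final | Incubation: Cells overnight before dosing, compound overnight, 37 °C, 5% CO2 | Evaluation: GFP/RFP fluorescence ratio | Control set: DMSO and RFP-L50D-GFP cell wells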
PABP polyA inh: PABP-poly(A) binding inhibition; P11940; PABP-poly(A) RNA binding, fluorescence polarization; inhibition, % at 35 µM; AID 2014; 1% of 290,000 active;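 active = 50% or more with normal probe brightness, or confirmed in later tests; inconclusive = above 50% with abnormal brightness, or retests that disagree; inactive = below 50% or failed in later tests; about a fifth of its hits are not listed in these tables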;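 note: calls also rest on retests at 20 µM and on dose response follow-up; controls were probe without protein and protein plus probe with vehicle; some compounds called inactive have numbers as strong as hits; many hits fall short of the cut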
Target sequence (P11940 whole entry, looked up): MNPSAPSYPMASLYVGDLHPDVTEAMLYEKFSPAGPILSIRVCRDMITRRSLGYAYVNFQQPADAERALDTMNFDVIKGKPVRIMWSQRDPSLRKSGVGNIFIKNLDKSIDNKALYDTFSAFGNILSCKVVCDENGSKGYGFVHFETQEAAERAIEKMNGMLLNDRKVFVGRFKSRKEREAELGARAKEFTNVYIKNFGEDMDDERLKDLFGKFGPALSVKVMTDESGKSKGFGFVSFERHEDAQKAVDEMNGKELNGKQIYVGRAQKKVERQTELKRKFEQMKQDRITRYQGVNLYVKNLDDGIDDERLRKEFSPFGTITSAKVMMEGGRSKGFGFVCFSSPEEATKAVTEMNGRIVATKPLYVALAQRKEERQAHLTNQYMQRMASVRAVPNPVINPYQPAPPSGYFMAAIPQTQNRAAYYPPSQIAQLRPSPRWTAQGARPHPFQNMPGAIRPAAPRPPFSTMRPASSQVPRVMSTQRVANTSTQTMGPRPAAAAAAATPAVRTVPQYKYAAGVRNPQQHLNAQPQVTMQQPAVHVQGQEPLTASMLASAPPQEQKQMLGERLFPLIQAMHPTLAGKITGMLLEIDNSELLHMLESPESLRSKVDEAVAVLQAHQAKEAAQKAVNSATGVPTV
Env fusion inh: HIV envelope-mediated fusion inhibition; inhibition, % at 12.3 µM; 1.1% of 360,000 active; HeLa-JRFL Env/CEM21 cell fusion, luciferase;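 active = mean replicate inhibition score of at least 50 and every replicate individually at or above 50; inconclusive = only one of the two criteria met; inactive = mean below 50 and not all replicates reaching 50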;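 note: 0% = plate neutral controls and 100% = maraviroc near 300 nM; one replicate is shown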
UUG fidelity: modulators of start codon recognition fidelity in yeast | S. cerevisiae UUG-firefly luciferase reporter, luminescence/redox ratio | activity score, % at 18.7 µM | 0.13% of 350,000 active;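 active = replicate mean at a twofold rise or more, about +100% in these data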;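 note: firefly luciferase made from a UUG start codon reports start codon fidelity; reporter light over untreated wells divided by growth signal over untreated wells; some hits fall short of that in this replicate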
eIF4H FP inh: inhibitors of RNA binding by human eIF4H; 0.94% of 290,000 active; inhibition, % at 35 µM; Q15056; eIF4H fluorescence polarization binding assay;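 active = 50% or more with normal probe brightness, or confirmed in later tests; inconclusive = above 50% with abnormal brightness, or retests that disagree; inactive = below 50% or failed in later tests; about a fifth of its hits are not listed in these tables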;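 note: calls also rest on retests at 20 µM and on dose response follow-up; 0% = protein and probe with vehicle and 100% = probe without protein; strong numbers were not always called active; many hits fall short of the cut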
eIF4H FP inh retest: also measured in eIF4H FP inh; calls as there; inhibition, %; compound at 20 µM; confirmation average;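 mean of two retest wells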
PABP polyA inh retest: also measured in PABP polyA inh; calls as there; inhibition, %; compound at 20 µM; confirmation repeats;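 mean of two retest wells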
MT1-MMP act inh RFP: further read-out of MT1-MMP act inh, marked with its call; RFP signal change, %; measured here: RFP expression control read;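 0 = vehicle wells; hits needed this value within 50% of zero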
An asterisk follows results filed as active; i = inactive; ? = inconclusive; / = not tested or not shown; & = joins results of further samples; [ ] = dose if it differs, or a comment.

SMILES | Rce1 inhib | CSC inhib | MT1-MMP act inh | MT1-MMP act inh RFP | PABP polyA inh | Env fusion inh | UUG fidelity | eIF4H FP inh | others
O=C(Nc1nccs1)c1ccc(COc2ccc(F)cc2)o1 | i | 26 | 8 | -2 | 1 | -34 | -21 | -3
O=C(CCN1C(=O)c2ccccc2C1=O)c1ccccc1 | / | / | 0 | 2 | / | 3 | -26 | /
C[C@@H]1CN([C@H](C)CO)C(=O)c2cc(Br)cnc2O[C@@H]1CN(C)Cc1ccc(-c2ccccc2)cc1 | / | / | -3 | -1 | / | 34[16.7 µM] | 9&-6 | /
CCC(Oc1ccccc1)C(=O)OCC(=O)N(CC)c1c(N)n(Cc2ccccc2)c(=O)[nH]c1=O (stereo not drawn) | i | -7 | 3 | 0 | / | 3 | 5 | /
CC(C)CNC(=O)CN(c1cccc(Cl)c1)S(C)(=O)=O | i | -2 | 3 | 3 | 0 | -12 | -8 | -3
CCC(=O)Nc1nnc(SCC(=O)Nc2ccc(F)cc2)s1 | i | -12 | 0 | 9 | 3 | 12 | -14 | 10
COc1ccc(CCNC(=O)c2cc(-c3ccncc3)nc3c(Cl)cccc23)cc1OC | i | -9 | -1 | -8 | -4 | 3 | / | -6
O=C(COc1nsnc1N1CCOCC1)N1CCOCC1 | / | / | -1 | 2 | 6 | -59 | -10 | -5
CCOc1ccccc1CN1CCNC(=O)C1CC(=O)N(C)Cc1cnccn1 (stereo not drawn) | i | -11 | 0 | 4 | -3 | 19 | -24 | 9
CCN(CC)c1ccc(C(=O)N/N=C/c2ccc(N3CCOCC3)cc2)cc1 | i | 20 | -2 | 3 | -2 | -7 | / | 8
Cc1ccccc1CSc1nnc(-c2ccccc2)c(=O)[nH]1 | i | -4 | 4 | -1 | -13 | 3 | / | -7
CC1CC(C)(C)N2C(=O)C(=C(C#N)C#N)c3cccc1c32 (stereo not drawn) | i | -5 | -1 | 3 | -6 | 22 | / | -5
Cc1cc(=O)oc2cc(OC(C)C(=O)NC3CCN(Cc4ccccc4)CC3)ccc12 (stereo not drawn) | i | -3 | 4 | 9 | -9 | -8 | -7 | -8
CC1=NN(c2ccccc2)C(=O)/C1=C\c1sccc1C | i | -12 | -2 | 1 | 2 | 8 | -13 | 16
CCC(Sc1nc(C)cc(C)n1)C(=O)Nc1cc(C)on1 (stereo not drawn) | i | 3 | 5 | 6 | 5 | 8 | / | -10

2 entries picked at random from those above, as already listed:
SMILES | Rce1 inhib | CSC inhib | MT1-MMP act inh | MT1-MMP act inh RFP | PABP polyA inh | Env fusion inh | UUG fidelity | eIF4H FP inh | others
CC1=NN(c2ccccc2)C(=O)/C1=C\c1sccc1C | i | -12 | -2 | 1 | 2 | 8 | -13 | 16
Cc1cc(=O)oc2cc(OC(C)C(=O)NC3CCN(Cc4ccccc4)CC3)ccc12 (stereo not drawn) | i | -3 | 4 | 9 | -9 | -8 | -7 | -8

Next structures
SMILES | Rce1 inhib | CSC inhib | MT1-MMP act inh | MT1-MMP act inh RFP | PABP polyA inh | Env fusion inh | UUG fidelity | eIF4H FP inh | others
Cc1cc(C)c(C(=O)C(C)OC(=O)Cn2cnc3c2c(=O)n(C)c(=O)n3C)cc1C (stereo not drawn) | i | 3 | -1 | -5 | / | -9 | / | /
CCn1cc(C2=NOC(C(=O)Nc3ccccc3C(=O)OC)C2)c(C)n1 (stereo not drawn) | i | 10 | 5 | -6 | -4 | / | / | 7
O=C(COC(=O)c1cc(S(=O)(=O)N2CCOCC2)ccc1Cl)Nc1ccc2c(c1)OCO2 | i | 3 | -5 | -13 | 6 | 4 | 9 | 7
O=C(COCc1cc(-c2ccco2)on1)NC1CCCCC1 | i | 13 | 0 | 4 | -3 | -3 | 10 | 8
CC(NS(=O)(=O)c1ccc(CCC(=O)NCc2ccco2)cc1)c1ccccc1 (stereo not drawn) | i | -7 | 6 | 4 | 16 | -2 | / | -2
Cc1ccnc(NCc2cccc3ccccc23)c1 | i | 14 | 1 | -1 | 3 | -34 | 3 | -3
CC(c1ccccc1)N(CC(=O)NC1CCCCC1)S(=O)(=O)c1cccc(C(F)(F)F)c1 (stereo not drawn) | i | 16 | -22 | -23 | -10 | / | -22 | 2
CNCCNC[C@H](Cc1cccc2ccccc12)NCCc1ccccc1 | / | 12 | 3 | 4 | / | 23 | -10 | /
Cc1cc(C)c2[nH]c(C(=O)N3CCC(n4nccc4NC(=O)C4CC4)CC3)c(C)c2c1 | i | 1 | 2 | -2 | -10 | 5 | 5 | -14
COc1ccc(OC)c2c1CC(C)(C)NC2=O | ? | -23 | 5 | 10 | -4 | ? | -11 | -2
CCOc1ccc(NC(=O)N[C@@H](Cc2ccccc2)C(=O)O)cc1 | i | 1 | -1 | 1 | -1 | 15 | / | -15
CCCc1nc2ccccc2c(C(=O)OCC(=O)c2ccc3c(c2)NC(=O)CO3)c1CC | i | -6 | -67 | -60 | -2 | 33 | -17 | 3
COc1cc([N+](=O)[O-])ccc1NC(=O)Nc1ccc2c(c1)OCCO2 | i | -6 | 11 | -5 | -11 | -4 | / | -12
CC(C)(C)S(=O)N1Cc2cc(C(=O)NCc3ccc4c(c3)OCO4)nc(-c3cccc(-c4ccncc4)c3)c2[C@H]1CCO (stereo partly drawn) | / | / | 0 | 2 | / | -9 | -4 | /
O=C(CSc1nccc(=O)[nH]1)N1CCN(c2ccccc2)CC1 | i | 6 | -3 | 3 | -8 | 2 | / | -8
O=C(Cc1ccc(S(=O)(=O)N2CCOCC2)s1)Nc1ccccc1N1CCOCC1 | i | -6 | 3 | 1 | 11 | 9 | -7 | 15
CC(C)COCC(O)CC(Cc1ccccc1)C(=O)NN (stereo not drawn) | i | -6 | 0 | -4 | -2 | 11 | / | 8
O=[N+]([O-])c1cc(S(=O)(=O)N2CCOCC2)ccc1N1CCNCC1 | / | / | 2 | -5 | / | 0 | -6 | /
CC(=O)c1ccc(S(=O)(=O)NC2CCSc3ccccc32)cc1 (stereo not drawn) | / | -8 | -3 | -7 | -4 | 8 | -5 | 8
CC(=O)Nc1cccc(-c2nn[nH]n2)c1 | i | 12 | 2 | 1 | 0 | 9 | -16 | 1
CN(C)c1ccc(N/C=C/C(=O)c2ccco2)cc1 | i | 19 | 6 | 8 | 13 | -147 | -57 | 3
O=C(NNC(=S)Nc1ccc(Cl)cc1Cl)c1ccncc1 | i | -13 | -2 | -2 | -10 | 6 | / | 5
O=S(=O)(Nc1cc(S(=O)(=O)N2CCOCC2)ccc1N1CCOCC1)c1ccc2c(c1)OCCO2 | i | -5 | -3 | 0 | -15 | 7 | / | -4
COc1ccc(/C=C(\C#N)C(=O)c2cccn2C)cc1 | i | -5 | -4 | -1 | -11 | 11 | -17 | -8
CCN1CCN(c2ncnc3c2cnn3-c2ccccc2)CC1 | i | 4 | 4 | 4 | 10 | -13 | -28 | -8
O=C(CCCN1C(=O)S/C(=C\c2ccccc2)C1=O)NNC(=O)c1ccccc1O | i | 8 | 7 | 0 | 24 | 71* | / | 1
CC(C)c1c(O)nc(SCCOc2ccc(Cl)cc2)[nH]c1=O | i | 34 | 2 | -2 | -1 | -71 | -4 | 1
CN(C)C(CNC(=O)c1cc(-c2ccco2)nc2ccccc12)c1ccccc1 (stereo not drawn) | / | -13 | -4 | -3 | / | 2 | -9 | /
O=C(Nc1ccc(F)cc1F)c1cc2nc3c(c(C(F)(F)F)n2n1)CCCC3 | i | -6 | 2 | 4 | -8 | -74 | -7 | 10
COCCNc1ccc(-c2n[nH]c(=O)c3ccccc23)cc1[N+](=O)[O-] | i | -1 | 7 | 8 | 3 | -3 | -22 | 1
Cc1ccc(C(C)NC(=S)NCc2ccc(F)cc2)cc1C (stereo not drawn) | i | -6 | 2 | 2 | -2 | 23 | -35 | 6
Cn1cc(C(=O)c2cccc(Cl)c2)cc1C#N | i | -13 | 5 | 3 | -6 | -1 | / | 0
CCC(=O)Nc1ccc(N2CCN(Cc3ccccc3)CC2)cc1 | / | 9 | 2 | 8 | -6 | 18 | -20 | -6
O=C(Nc1ccc2nc(-c3cccs3)c(-c3cccs3)nc2c1)N1CCOCC1 | i | 25 | -23 | -4 | 19 | -52 | -13 | 1
O=C(N/N=C/c1ccc([N+](=O)[O-])o1)c1cn(-c2ccccc2)nc1-c1ccc(F)cc1 | i | -5 | / | / | 20 | 11 | / | 45
COC(=O)C(C)Sc1nc2c(c(=O)n1-c1ccccc1)SCC2 (stereo not drawn) | i | / | / | / | 1 | -27 | -7 | 36
CC(C)(C)NS(=O)(=O)c1ccc(CCC(=O)Nc2ccc3c(c2)OCCO3)cc1 | i | 1 | 4 | 5 | -3 | / | -3 | -12
CCCCNc1ncnc2c1cnn2-c1ccc(Cl)cc1 | i | 60 | 6 | -4 | -12 | -434 | -11 | -1
CCOc1ccc(NC(=O)CN(C)C(=O)CSC(C)C(=O)Nc2cc(C)on2)cc1OCC (stereo not drawn) | i | -1 | 0 | 1 | 55* | 9 | -3 | 35 | eIF4H FP inh retest=41;PABP polyA inh retest=72*
COc1ccc(C(=O)Nc2nc(-c3ccc([N+](=O)[O-])cc3)c(-c3ccccc3)s2)cc1 | i | 36 | -6 | -23 | / | / | -6 | /
COc1cccc(CN(C)CC(=O)Nc2c(C)cccc2C(C)C)c1 | i | 5 | -2 | -5 | 2 | 12 | / | 3
COc1ccc(-c2nn(-c3ccccc3)cc2C(=O)Nc2nc(CC(C)=O)ns2)cc1 | i | 7 | -7 | -9 | -11 | / | -5 | -16
NNC(=O)c1cc(C23CC4CC(CC(C4)C2)C3)[nH]n1 | i | -9 | 4 | 2 | -9 | 2 | -16 | 6
COc1cccc(/C=N/NC(=O)CNC(=O)c2cccs2)c1O | i | 26 | 3 | 2 | 0 | 17 | / | 11
COc1cc2nc(N3CCN(C(=O)OCc4ccccc4)[C@H](C(=O)NC(C)(C)C)C3)nc(N)c2cc1OC | / | -2 | -1 | -5 | / | / | -23 | /
COc1ccc(N(CC(=O)NCc2cccc(OC)c2)S(=O)(=O)c2c(C)noc2C)cc1 | i | -8 | 4 | 2 | -2 | -23 | 2 | 0
Cc1ccc(-n2ncc(C#N)c2N)cc1 | i | -17 | 0 | -5 | 4 | -21 | / | 5
O=C1CCCc2cc(S(=O)(=O)N3CCC(C(=O)NCc4ccccc4)CC3)ccc2N1 | i | 7 | 1 | 1 | 8 | 0 | -2 | -8
O=C(Nc1nccs1)c1cccc(N2C(=O)C3C4C=CC(C4)C3C2=O)c1 (stereo not drawn) | i | -3 | -7 | -2 | 31 | 7 | / | -9
Cc1ccc(OS(=O)(=O)c2c(C)nn(C)c2Cl)c(C)c1 | i | 10 | -3 | 2 | 1 | 0 | -6 | -7
O=C(N/N=C/c1ccc(O)c([N+](=O)[O-])c1)c1ccncc1 | i | -25 | 0 | 3 | 8 | -10 | / | -7
CCCCc1[nH]c(=O)c(C#N)c2c1CSC(C)(C)C2 | i | -5 | 4 | 7 | 33 | -33 | / | 18
Cc1cc(C)c(C(=O)COC(=O)[C@H](C)Nc2ccc(C(F)(F)F)cc2[N+](=O)[O-])c(C)c1 | i | 4 | 3 | 6 | -10 | -75 | 11 | 0
COC(=O)c1cnc(Nc2cc(C)ccc2OC)c2ccccc12 | i | 18 | -2 | -5 | -3 | -4 | -21 | -1
Cc1noc(C)c1C(=O)NNc1ccc(C(C)C)cc1 | i | 59 | -1 | 1 | -6 | -13 | 18 | 0

The list is partial; the hit share may differ from the screen's.
